SARS PLP yeast – qHTS of Yeast-based Assay for SARS-CoV PLP | S. cerevisiae expressing SARS-CoV PLpro, growth rescue; control for the full effect not named in the record | Potency, µM (doses to about 32.9 µM), for inactives: top-dose activity, positive = growth rescue | 0.19% of 330,000 active; also: 0% is about no effect; nearly all actives have a fitted effect of over 55% in size; growth read by luminescence after 48 h
2A StopGo – High Throughput Screening for Foot and Mouth Disease Virus Antivirals. human cells with a luciferase reporter of 2A StopGo recoding; control for the full effect not named in the record. Potency, µM (doses to about 57.9 µM), without a hit: at the highest dose signal change, negative = less light. 1.2% of 410,000 active; active = well fitted falling curve with a large enough effect; inconclusive = small, poorly fitted or top-dose-only effect; inactive = no such curve, though single readings can be large or run the other way; tested in HEK293T cells; also: % is scaled to controls: 0 for no effect and ±100 for the full control effect; nearly all actives have a fitted effect of over 45% in size; luciferase light after 4 h
Cruzain inh Det – qHTS Assay for Promiscuous and Specific Inhibitors of Cruzain (with detergent); Potency, µM, for inactives: max response, negative = inhibition, most hits filed as inhibitors; Cruzipain (Trypanosoma cruzi), P25779; AID 1478, 2009; purified cruzain, Z-FR-AMC fluorescence, 0.01% Triton; 0.43% of 200,000 active; active = well fitted curve in the direction sought with a large enough effect; inconclusive = small, poorly fitted or top-dose-only effect, or another doubt; inactive = no such curve, though single readings can be large; an effect the other way counts as inactive or inconclusive;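 also: plate controls were neutral wells for no effect and buffer without enzyme for full effect; nearly all actives have a fitted effect of over 40% in size; top concentration of the series not given in the record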
Target sequence (P25779 123-467 limits assumed): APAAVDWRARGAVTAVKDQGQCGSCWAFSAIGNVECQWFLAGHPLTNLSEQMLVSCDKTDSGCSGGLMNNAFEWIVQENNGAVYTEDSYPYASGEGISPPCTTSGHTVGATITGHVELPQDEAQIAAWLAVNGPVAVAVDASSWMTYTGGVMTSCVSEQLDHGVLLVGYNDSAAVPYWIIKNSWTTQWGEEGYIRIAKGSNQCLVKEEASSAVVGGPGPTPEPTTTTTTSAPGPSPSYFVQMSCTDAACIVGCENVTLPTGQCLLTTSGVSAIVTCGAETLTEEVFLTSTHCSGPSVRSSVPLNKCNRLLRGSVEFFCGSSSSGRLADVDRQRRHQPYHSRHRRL
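Steps: dispense cruzain (1.5 nM final) in acetate buffer pH 5.5 with DTT and 0.01% Triton X-100; pin-transfer compounds; incubate 15 min RT; add Z-FR-AMC (2 uM final); read fluorescence every 30 s, using the 60 s intensity change.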
Cruzain inh noDet – qHTS Assay for Promiscuous and Specific Inhibitors of Cruzain (without detergent); purified cruzain, Z-FR-AMC fluorescence, no detergent; Cruzipain (Trypanosoma cruzi), P25779; Potency, µM, inactives show max response, negative = inhibition, actives largely listed as inhibitors; 2.3% of 200,000 active; active = well fitted curve in the direction sought with a large enough effect; inconclusive = small, poorly fitted or top-dose-only effect, or another doubt; inactive = no such curve, though single readings can be large; an effect the other way counts as inactive or inconclusive;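 also: plate controls were enzyme without inhibitor for no effect and buffer without enzyme for full effect; nearly all actives have a fitted effect of over 40% in size; top concentration of the series not given in the record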
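Detergent-free condition (0.00005% Triton X-100) in acetate buffer pH 5.5 with DTT. 1.5 nM enzyme and compound were pre-mixed 15 min, then 2 uM Z-FR-AMC substrate added; reaction progress from fluorescence change between first and third reads (60 s).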
MARV entry inh – qHTS for inhibitors of binding or entry into cells for Marburg Virus; 1.8% of 300,000 active; Potency, µM (highest dose often 37.8 µM), for inactives: top-dose activity change, negative = inhibition, most hits filed as inhibitors; Marburg virus pseudotyped entry inhibition, cell reporter; control for the full effect not named in the record; about a third of the inactives were read at about 46 µM; active = well fitted inhibition curve with a large enough effect; inconclusive = small, poorly fitted or top-dose-only effect, or effect the other way; inactive = flat fitted curve, though single readings scatter; tested in HEK293 cells; about a fifth of its hits are not listed in these tables; also: % is scaled to controls: 0 for no effect and ±100 for the full control effect; luciferase read-out
Lassa entry inh – qHTS for Inhibitors of binding or entry into cells for Lassa Virus; Lassa virus pseudotype entry inhibition, cell reporter; control for the full effect not named in the record; Potency, µM (top dose mostly 37.9 µM), for the others: at the top dose activity change, negative = inhibition, hits mostly inhibitors; 1.2% of 300,000 active; AID 540256, 2011; active means well fitted inhibition curve with a large enough effect; inconclusive means small, poorly fitted or top-dose-only effect, or effect the other way; inactive means flat fitted curve, though single readings scatter; tested in HEK293 cells; also: % is scaled to controls: 0 for no effect and ±100 for the full control effect; nearly all actives have a fitted effect of over 50% in size; luciferase read-out
RE007 growth inh – qHTS Assay for Inhibitors of the HIV-1 protein Vpr; S. pombe RE007 Vpr strain, BacTiter-Glo ATP luminescence, 24 h; control for the full effect not named in the record; Potency, µM (doses to about 92.2 µM), without a hit: at the highest dose activity change, negative = less growth; 0.21% of 360,000 active; active = well fitted falling curve with a large enough effect; inconclusive = small, poorly fitted or top-dose-only effect; inactive = no such curve, though single readings can be large or run the other way;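 also: % is scaled to controls: 0 for no effect and ±100 for the full control effect; nearly all actives have a fitted effect of over 50% in size; the assay follows cell death caused by Vpr and the record does not say whether a fall means rescue or toxicity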
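Fission yeast strain RE007, carrying one chromosomally integrated HIV-1 vpr copy, was seeded at OD 0.01 in PMG+AL medium with 23 nL pinned compound. After 24 h at 30 °C and 99% humidity, viability was read by BacTiter-Glo luminescence.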
NS1 inh – qHTS Assay for Inhibitors of Influenza NS1 Protein Function; S. cerevisiae slowed by influenza A NS1, growth recovery by OD600; Potency, µM (series often up to 46.1 µM), for inactives: at the top dose activity, positive = more growth; 0.4% of 270,000 active; also: actives are rising curves; nearly all actives have a fitted effect of over 50% in size
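A cell-based growth assay was used: compounds that relieve NS1-induced slow growth of budding yeast raise OD600. Assay medium was yeast nitrogen base with ammonium sulphate and -URA supplement, pH 6.0, with 2% galactose.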
* hit, by the source's call; ? = inconclusive; . = no result given; & = joins results of further samples; [ ] = another dose, or the depositor's remark. Unless noted, calls follow the shape of the dose curve; as a rule, active means well fitted rising curve with a large enough effect; inconclusive means small, poorly fitted or top-dose-only effect; inactive means no such curve, though single readings can be large or run the other way. Potency is read from the fitted curve at half-maximal effect. Rows were taken by chance (roughly 4.7% active in at least one column).

Structure,SARS PLP yeast,2A StopGo,Cruzain inh Det,Cruzain inh noDet,MARV entry inh,Lassa entry inh,RE007 growth inh,NS1 inh
CC(=O)C1=C(c2ccccc2)NC(=O)NC1c1ccc2c(c1)OCO2 (configuration not stated),-2.1%,-22.3%,.,.,11.6%,-2.9%,4.8%,9.3%
CC1CCCCC12C(=O)NC(=O)NC2=O (configuration not stated),.,0.0%,.,.,13.2%,18.0%[46.1 µM],-8.7%,.
NS(=O)(=O)c1ccc(N/N=C/c2cn(-c3ccccc3)nc2-c2cccs2)c([N+](=O)[O-])c1,1.0%,?,.,.,10µM*,?,-8.0%,12.7%
Cc1c(C(=O)Nc2c(F)cccc2F)sc2ncn(CC(=O)N3CCCCC3)c(=O)c12,-10.3%,-8.7%,.,.,-1.1%[46.1 µM],2.3%[46.1 µM],-14.9%,5.0%
COCCn1c(SCC(=O)Nc2cccc(NC(C)=O)c2)nc2c([nH]c3ccccc32)c1=O,-8.9%,-3.6%,.,.,-10.2%,-1.2%,9.3%,-7.7%
CSc1nc(O)c(C(c2ccccc2)c2c(O)nc(SC)[nH]c2=O)c(=O)[nH]1,-1.0%,6.2%,.,.,.,.,2.5%,12.0%
Cc1ccccc1NC(=O)CCN1C(=O)c2ccccc2C1=O,-2.4%,-10.9%,.,.,-11.4%,?,-9.2%,15.0%
O=C(Nc1ccc(F)cc1)c1ccc(Cn2cnnn2)cc1,2.5%,10.8%,.,.,-1.7%[46.1 µM],.,-8.3%,.
CCCCCn1c(SCC(=O)c2ccccc2)nc2cc(C(=O)NCc3ccco3)ccc2c1=O,1.9%,7.6%,-0.2%,-16.7%,?,-3.3%,-1.0%,2.6%
Cc1ccccc1NC(=O)N1CCCN(c2ccc(C#N)cn2)CC1,-0.1%,-19.3%,.,.,-1.7%,3.0%,21.8%,-1.1%
CCCOc1ccc(CNC(=S)NCc2ccc(OC(C)C)cc2)cc1,22.7%,-11.9%,-6.1%,6.4%,?,?,-3.4%,3.5%
CCCOc1ccc(N2CC(C(=O)NCCc3ccc(OC)c(OC)c3)CC2=O)cc1 (configuration not stated),0.7%,-0.3%,.,.,-2.1%[46.1 µM],3.8%,5.8%,-1.4%
COc1ccc(Nc2nc(C)cc(=O)[nH]2)cc1,-2.4%,15.3%,4.7%,-5.4%,-3.3%,-12.4%,-2.2%,6.2%
CCOc1ccc(N2C(=O)CC(SC(=NC)Nc3cccc(F)c3)C2=O)cc1 (configuration not stated),-5.1%,0.0%,-2.1%,5.3%,-2.9%,-1.1%,-2.1%,-21.5%
O=c1cc(-c2ccccc2)c2ccccc2[nH]1,-4.7%,-15.7%,2.8%,-2.9%,-19.0%,-11.6%,21.1%,-5.2%
COc1ccc(NC(=O)CCN2CCOCC2)c(OC)c1,-0.5%,1.5%,.,.,0.2%,13.4%,4.6%,12.0%
CCN(CC)S(=O)(=O)c1ccc(C(=O)Nc2ccc3c(c2)OCO3)cc1,3.8%,12.1%,.,.,4.0%[46.1 µM],?,-1.6%,.
COc1ccc(-c2noc(CNC(=O)c3ccc4c(c3)OCO4)n2)cc1,-1.1%,-7.6%,.,.,-3.1%[46.1 µM],-2.7%[46.1 µM],-13.5%,-28.9%
Cc1ccc(C)c(OCCC(=O)OCC(=O)c2ccc3c(c2)NC(=O)CO3)c1,-3.5%,-13.5%,.,.,4.4%,17.2%,4.3%,.
COc1ccc(-n2nc(C(=O)NCCc3ccc(OC)c(OC)c3)c3c4ccccc4n(C)c3c2=O)cc1,.,0.0%,-4.8%,?,-1.3%[46.1 µM],?,.,.
C#CCNC(=O)C1=C[C@@H](C2CCCCC2)C[C@@H](OCCCCO)O1,-0.4%,5.6%,.,.,.,.,21.6%,-0.5%
O=Cc1ccc(OCC(=O)NCC2CCCO2)cc1 (configuration not stated),-0.4%,17.5%,.,.,-13.1%[46.1 µM],15.8%[46.1 µM],10.9%,6.4%
CC(C)n1cc(/C=C2/NC(=O)NC2=O)c2ccccc21,0.7%,-16.8%,.,.,4.6%[46.1 µM],9.7%,8.5%,.
Cc1cc(C(=O)NC2CCCc3c2cnn3-c2ccc(C(C)(C)C)cc2)nn1C (configuration not stated),-5.0%,?,.,.,?,?,-9.8%,-45.1%
Cc1cc(Cl)ccc1OCCCC(=O)OCC(=O)Nc1cccc(S(N)(=O)=O)c1,-0.8%,-7.8%,.,.,2.1%,13.6%,21.5%,.
CCCN1Cc2cccc(C(=O)NCc3ccccc3OC)c2C1=O,-4.7%,9.8%,-2.5%,5.8%,-18.3%,-6.8%,47.1%,-47.5%
CCC[C@@H]1C[C@@H](C(=O)N[C@H]([C@@H](C)O)[C@H]2O[C@H](SC)[C@H](O)[C@@H](O)C2O)N(C)C1 (some centres not stated),-0.3%,-14.3%,-0.2%,2.9%,4.7%&4.7%,-21.6%,-5.1%[18.4 µM],-4.7%
CN(C)c1ccc(/C=[N+](\[O-])C2N(c3ccccc3)C(=S)SC2(C)C)cc1 (configuration not stated),-2.9%,0.0%,-6.9%,3.5%,?,3.7%,28.8%,-7.8%
Cc1ccc(C(=O)NC2CCS(=O)(=O)C2)cc1S(=O)(=O)N1CCCCCC1 (configuration not stated),-0.3%,-3.5%,.,.,12.1%[46.1 µM],12.4%,-6.9%,-6.0%
O=c1cc(CN2CCN(Cc3ccccc3)CC2)c2ccc(O)c(O)c2o1,7.3%,-8.5%,.,.,?,-17.6%,3.2%,3.1%
COc1cccc2cc(C(=O)Nc3ccc(F)c(F)c3)c(=O)oc12,.,45.2%[activator],2.4%,12.5%,3.4%[46.1 µM],10.0%[46.1 µM],.,.
CS(=O)(=O)c1nc(S(=O)(=O)c2ccc(Cl)cc2)c(N2CCC(O)CC2)s1,0.7%,13.6%,.,.,.,.,-6.3%,-5.5%
Cc1cc(C)c(C2=CC(=O)C[C@H](c3ccc4c(c3)OCO4)C2)c(C)c1,-0.1%,0.0%,.,.,0.8%,.,31.4%,.
O=C(O)CCCC(=O)N1CCN(c2nc(-c3ccccc3)c3ccccc3n2)CC1,-8.6%,?,-4.1%,29.8%,0.0%,.,-1.8%,-52.5%
C=CCn1c(COc2ccc(Cl)cc2)nnc1SCC(=O)Nc1ccc(S(N)(=O)=O)cc1,-7.3%,-9.3%,-7.3%,16.7%,?,?,-5.2%,13.3%
O=C(Cc1ccc(-c2ccccc2)cc1)OCC(=O)N1CCCC1=O,-0.6%,-0.2%,.,.,4.3%[46.1 µM],-20.2%[46.1 µM],-2.1%,.
COc1ccc2[nH]c3c(c2c1)CCN1C(=O)N([C@@H](C)C(=O)NC2CCN(Cc4ccccc4)CC2)C(=O)[C@]31C,-3.0%,-26.0%,.,.,.,.,-4.9%,-0.2%
O=C(/C=C/c1ccco1)NCC1CCCO1 (configuration not stated),-0.6%,-3.7%,-14.3%,18.1%,17.9%,11.9%,2.4%,-10.4%
O=C(NC1CCCc2ccccc21)C1CCN(S(=O)(=O)c2ccccc2)CC1 (configuration not stated),18.8%,2.6%,-4.5%,11.1%,-13.9%,6.2%,?,12.4%
O=c1[nH]c2cc3c(cc2cc1C(c1nnnn1Cc1ccccc1)N1CCN2CCCC2C1)OCCO3 (configuration not stated),4.9%,.,-6.3%,-16.8%,?,5.8%,2.2%,?
CCCCNC(=O)c1onc(CSc2ccc(F)cc2)c1C(=O)NCCCC,-1.3%,-18.7%,.,.,.,.,10.4%,-6.2%
Nc1nc(-c2cccc(Br)c2)cs1,-57.2%,41.1%[activator],-1.2%,-10.4%,-0.7%,8.4%,14.1µM*,-188.7%
c1cnc2ccc(C(c3nnnn3C3CCCCC3)N3CCN4CCCC4C3)cc2c1 (configuration not stated),2.1%,16.9%,-4.9%,-9.7%,11.0%[46.1 µM],24.4%,8.8%,2.1%
Cc1nccc(-c2sc(-c3cccs3)nc2C)n1,0.0%,6.8%,.,.,.,.,-11.7%,-5.7%
Cc1ccc(C(=O)N/C(=C\c2cn(C)c3ccccc23)C(=O)NCCCN2CCOCC2)cc1,0.6%,-9.1%,.,.,-14.2%[46.1 µM],8.4%[46.1 µM],-8.3%,14.2%
N#Cc1cc2c(nc1SCC(=O)Nc1ccc(Cl)c(C(F)(F)F)c1)C1CCN2CC1,.,0.0%,-5.0%,-6.0%,?,-0.3%[46.1 µM],.,.
Cc1ccc(S(=O)(=O)N(C)c2ccccc2C(=O)Nc2ccc3c(c2)OCCO3)cc1,-0.3%,-20.1%,.,.,.,.,16.3%,-34.6%
O=C(NC(=S)Nc1cccc(Cl)c1N1CCCC1)c1ccc(-c2cccc([N+](=O)[O-])c2)o1,2.2%,-20.5%,-3.4%,3.16µM*,?,-25.1%,-3.1%,9.5%
Cn1cc(S(=O)(=O)Nc2ccc(F)c(Cl)c2)c(=O)n(C)c1=O,-4.0%,-2.6%,.,.,.,.,8.8%,17.7%
CC(=O)c1ccc(NC(=O)CCc2c(C)nc3c(c2C)c(=O)n(C)c(=O)n3C)cc1,.,20.8%,1.1%,-4.8%,?,10.7%[46.1 µM],.,.
CC(C)CC(=O)Nc1ccc(N2CCN(S(C)(=O)=O)CC2)cc1,1.4%,-2.2%,-1.0%,1.6%,?,6.2%,-0.4%,-9.3%
CCOC(=O)C1(Cc2ccccc2C)CCCN(Cc2ccc(NC(C)=O)cc2)C1 (configuration not stated),0.3%,-8.8%,.,.,?,-21.2%[46.1 µM],-23.9%,-1.0%
CN1CC(=O)N(CC(=O)Nc2ccc(SC(F)F)cc2)C1=O,0.2%,6.9%,.,.,-0.1%[46.1 µM],-0.1%,-3.2%,.

From PubChem
